EPAC2 ant val: validation of human EPAC2 antagonists. Potency, µM (highest dose often 112 µM), inactives show at the top dose activity, negative = inhibition, actives largely listed as inhibitors. 1.7% of 16,000 active. EPAC2 Rap1B BODIPY-GDP exchange, fluorescence. Q8WZA2; active means well fitted inhibition curve with a large enough effect; inconclusive means small, poorly fitted or top-dose-only effect; inactive means no such curve, though single readings can be large or run the other way;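 further: 100% = activation by cAMP agonist control; nearly all actives have a fitted effect of over 40% in size; the record reuses the description of the EPAC1 agonist screen; inactives centre near -10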
Target sequence (Q8WZA2 whole entry, looked up): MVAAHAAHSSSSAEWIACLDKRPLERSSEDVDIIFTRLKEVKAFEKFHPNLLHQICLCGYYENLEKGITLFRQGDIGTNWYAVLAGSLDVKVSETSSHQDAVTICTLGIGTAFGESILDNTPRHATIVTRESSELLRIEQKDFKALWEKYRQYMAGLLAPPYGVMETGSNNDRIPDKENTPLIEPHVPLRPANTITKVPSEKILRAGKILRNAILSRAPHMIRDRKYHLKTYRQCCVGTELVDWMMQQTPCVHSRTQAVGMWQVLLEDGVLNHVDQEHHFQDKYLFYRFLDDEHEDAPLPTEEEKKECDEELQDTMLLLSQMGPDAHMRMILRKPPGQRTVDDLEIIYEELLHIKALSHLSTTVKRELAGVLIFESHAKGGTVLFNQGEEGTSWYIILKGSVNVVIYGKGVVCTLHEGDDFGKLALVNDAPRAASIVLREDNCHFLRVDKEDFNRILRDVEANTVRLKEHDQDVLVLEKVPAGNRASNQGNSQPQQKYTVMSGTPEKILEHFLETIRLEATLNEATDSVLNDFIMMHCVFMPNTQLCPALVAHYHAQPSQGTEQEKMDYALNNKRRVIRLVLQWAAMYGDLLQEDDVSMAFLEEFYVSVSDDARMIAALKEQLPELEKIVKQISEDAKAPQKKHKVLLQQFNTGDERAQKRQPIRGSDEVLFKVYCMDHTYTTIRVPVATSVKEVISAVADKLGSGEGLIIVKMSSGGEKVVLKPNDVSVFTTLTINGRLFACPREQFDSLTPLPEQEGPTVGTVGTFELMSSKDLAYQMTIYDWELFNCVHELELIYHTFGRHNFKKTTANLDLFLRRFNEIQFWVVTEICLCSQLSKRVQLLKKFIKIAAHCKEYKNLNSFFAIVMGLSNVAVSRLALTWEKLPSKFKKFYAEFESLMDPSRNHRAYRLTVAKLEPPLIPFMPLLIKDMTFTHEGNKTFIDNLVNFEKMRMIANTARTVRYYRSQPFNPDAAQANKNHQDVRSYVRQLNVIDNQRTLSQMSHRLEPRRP
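Fluorescent exchange read-out: 100 nM EPAC2 with 250 nM RAP1B–BODIPY-GDP and 50 uM GDP; BODIPY-GDP release lowers fluorescence. Read at 480/540 nm every 5 min for 30 min at room temperature; normalized to 6.5 mM cAMP.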
Active calls of the source: *; u = inconclusive; & = joins results of further samples; ! = not active in a repeat; [ ] = remark or other dose. Potency means the concentration at half of the fitted maximal effect.

| Compound | EPAC2 ant val |
| --- | --- |
| CC(C)NC(=O)N1CCC2(CC1)CCN(C(=O)c1cccn1C)CC2 | -21.4% |
| Nc1ncnc2c1ncn2C1CCCO1 (centres undefined) | -17.9% |
| N#Cc1ccc(CN2CCCC3(CCN(C(=O)c4cccc(F)c4)CC3)C2)cc1 | -21.1% |
| O=C1c2c(O)cc(O)cc2OC(c2ccc(O)c(O)c2)C1O (centres undefined) | -1.9%&-11.2% |
| CCN(c1ccccc1)c1cc(NC)[n+](C)c(C)n1 | -12.0% |
| COCCN1CCN(C(=O)c2cnn(-c3nccc(-c4ccco4)n3)c2C(C)C)CC1 | 3.3% |
| O=C(NNCNNC(=O)c1ccncc1)c1ccncc1 | 8.9% |
| N#Cc1cc2c(OCC(O)CN3CCN(C(c4ccccc4)c4ccccc4)CC3)cccc2[nH]1 (centres undefined) | u |
| C/C(=C\c1ccco1)CN1CCOc2ccc(CN3CCC(Oc4cccnc4)CC3)cc2C1 | -6.9% |
| O=C1[C@H](Cc2ccccc2)NC/C=C\C[C@@H](c2ccco2)N1Cc1ccccc1 | u |
| O=S1(=O)CCOC[C@H](CC2CCCCC2)N1Cc1ccccc1F | u |
| O=C(c1cnccn1)N1CCC[C@@]2(CCN(C(c3ccccc3)c3ccccc3)C2)C1 | 50.1µM* |
| CC1CN(S(=O)(=O)c2cccc3cnccc23)CCN1 (centres undefined) | -11.3% |
| [O-][N+]12CCCc3cccc(c31)CCC2 | -11.2% |
| Cc1cccc(CNC(=O)c2c3n(c(C)cc2=O)-c2ccccc2SC(c2ccsc2)C3)n1 (centres undefined) | 8.9% |
| Nn1nnc2ccccc21 | 15.7% |
| COc1ccc(NC(=O)N2CC[C@@]3(CCCN(C(=O)c4ccncc4)C3)C2)cc1 | -6.5% |
| O=C(O)CCCCCCCCc1cn(CCc2c[nH]c3ccccc23)nn1 | -16.4% |
| CCCCCCCC(=O)OC[C@H](CO)OC(=O)CCCCCCC | u |
| COc1ccc2[nH]cc(CCNc3ccnc(-c4ccc(N(C)C)cc4)n3)c2c1 | -27.3% |
| OCC(O)C(O)C(O)CO (centres undefined) | -10.2% |
| CCC(C(=O)O)c1ccccc1 (centres undefined) | -14.2% |
| O=C1CCN(Cc2ccc([N+](=O)[O-])cc2)CCN1[C@H](CO)c1ccccc1 | 1.9% |
| O=C(Nc1ccc(/C=C/c2ccc(NC(=O)c3cc(S(=O)(=O)O)c4cccnc4c3O)cc2S(=O)(=O)O)c(S(=O)(=O)O)c1)c1cc(S(=O)(=O)O)c2cccnc2c1O | 22.4µM* |
| C=CC1=C(C)C2=Cc3c(C=C)c(C)c4[n]3[Sn+2][n]3c(c(C)c(CCC(=O)O)c3=CC3=NC(=C4)C(C)=C3CCC(=O)O)=CC1=N2 | -24.8% |
| CN1C[C@H](C(=O)N[C@]2(C)O[C@@]3(O)[C@H]4CCCN4C(=O)[C@H](Cc4ccccc4)N3C2=O)C[C@H]2c3cccc4[nH]cc(c34)C[C@@H]21 | -29.0% |
| N#Cc1ccccc1OC[C@H](O)CNCCNC(=O)Nc1ccccc1 | -20.5% |
| COc1ccccc1CN1CC2(CCN(S(=O)(=O)c3ccccc3)CC2)C1 | -22.4% |
| CC(=O)N[C@@H](CC(C)C)C(=O)O | -25.0% |
| Cc1ccc(C(=O)c2ccc(CC(=O)O)n2C)cc1 | u |
| CN(C)C(=O)CCSC(SCCC(=O)O)c1cccc(/C=C/c2ccc3ccc(Cl)cc3n2)c1 (centres undefined) | u |
| c1ccc2c(Nc3ccncc3)nc(-c3ccc4c(c3)OCO4)nc2c1 | -16.6% |
| Cc1oc(-c2ccccc2NC(=O)c2ccccn2)nc1CNC(=O)c1cccc(C#CC(C)(C)O)c1 | -11.5% |
| CC(C)C(=O)c1c(C(C)C)nn2ccccc12 | u |
| NCCNC(=O)c1ccc(Cl)cc1 | -18.2% |
| COc1ncc2ncc(=O)n(C)c2n1 | -25.6% |
| CC(NC(=O)c1cc(F)ccc1F)c1nnc2n1CCN(Cc1ccc(-c3ccccc3)cc1)CC2 (centres undefined) | -17.8% |
| Cc1cccc2c(C(O)c3c[nH]c4c(C)cccc34)c[nH]c12 | u |
| COC1[C@@H](O[C@@H]2O[C@H](C)[C@@H](O[C@H]3C[C@@](C)(O)[C@H](OC(=O)CC(C)C)[C@H](C)O3)[C@H](N(C)C)[C@H]2O)[C@@H](CC=O)C[C@@H](C)[C@@H](O)/C=C/C=C/C[C@@H](C)OC(=O)C[C@H]1OC(C)=O (some centres undefined) | -14.0%[56.6 µM] |
| Cc1cc2c(c(-c3ccc4nc(C)ccc4c3)c1)OC(CNC(=O)Cc1ccn(C)c1)C2 (centres undefined) | u |
| Cc1ccc(F)cc1CNC(=O)c1sc2ncnc(NCC3CCCO3)c2c1C (centres undefined) | u |
| CN(C)c1ccc(/C=C/c2cc3ccccc3cn2)cc1 | u |
| CCNc1ncc2nc(-c3ccc(Cl)cc3)c(=O)n(Cc3cccs3)c2n1 | 0.9% |
| CN(Cc1ccco1)c1ccnc(-c2cccc(NS(C)(=O)=O)c2)n1 | -13.4% |
| Cc1noc(C)c1C(=O)N1CCC2(CCCN(c3ccccc3)C2)CC1 | -16.9% |
| CCCCCCCCCCCCCC(=O)OCC(COP(=O)([O-])OCC[N+](C)(C)C)OC(=O)CCCCCCCCCCCCC (centres undefined) | 16.3% |
| Cc1cc2ccccc2c[n+]1C1CCCCC1 | -6.6% |
| Cc1ncc2c(c1CNC(=O)/C=C/c1cccs1)CCN(C(=O)c1noc3c1CCCC3)C2 | -1.7% |
| COc1ccccc1N1CCN(CCN2C(=O)c3ccccc3C(C)(C)C2=O)CC1 | -20.1%&-26.1% |
| O=c1cnc2cnc(Oc3ccccc3)nc2n1CCc1ccccc1 | u |

Following part
| Compound | EPAC2 ant val |
| --- | --- |
| CC(C)(Sc1ccc(CCN(CCCCC2CCCCC2)C(=O)NC2CCCCC2)cc1)C(=O)O | 44.7µM*! |
| CC(C)(C)NCC(O)c1ccc(O)c(CO)c1 (centres undefined) | -1.9%&-12.2%&-8.9%&-6.3%&-21.0% |
| CC(C)C1COc2cc3oc(=O)ccc3cc2O1 (centres undefined) | -16.0% |
| Cc1c(C(=O)NCCc2ccccn2)cnn1-c1nccc(-c2cccs2)n1 | -3.5% |
| O=C(c1ccco1)N1CCC[C@@]2(CCN(c3ccccn3)C2)C1 | -15.0% |
| Cn1cc(-c2nc3cnc(N4CCOCC4)nc3n(C3CC3)c2=O)c2ccccc21 | -25.5% |
| CO/N=C(/C(=O)N[C@H]1C(=O)N2C(C(=O)O)=C(COC(C)=O)CSC12)c1csc(N)n1 (some centres undefined) | 163.0%[activator] |
| C=CC[C@H](c1ccc(F)cc1)N(CC(C)C)S(=O)(=O)C=C | u |
| COCCn1c(=O)c(-c2cc(F)cc(F)c2)nc2cnc(N3CCOCC3)nc21 | -1.5% |
| O=c1c(-c2cc(O)c(O)c(O)c2)coc2cc(O)c(O)c(O)c12 | 0.0% |
| COCC(=O)Nc1cc(C(=O)N2CCOc3ccccc3C2)cc2nc(-c3cccnc3)n(C)c12 | -27.6% |
| O=c1c(-c2cccs2)nc2cnc(N3CCOCC3)nc2n1-c1ccccc1 | 47.3%[activator] |
| CC1(C)CC2C1CC[C@]1(C)CCC3C(C(=O)O)CC(=O)O[C@]32C1 (some centres undefined) | 13.4% |
| CCCC(CCC)C(=O)OC1C[C@H]2CC[C@@H](C1)[N+]2(C)C (some centres undefined) | 20.0%&12.8% |
| Cc1ccccc1C1(CC(=O)N2CC3CC4CC(C3)CC2C4)CC(=O)N(Cc2cccnc2)C1=O (centres undefined) | -0.1% |
| FC(F)(F)c1ccccc1-c1nc(Nc2ccncc2)c2ccccc2n1 | -5.9% |
| COc1ccc2c(c1)-c1nc(-n3ncc(C(=O)NC(C)(C)CO)c3C3CC3)ncc1CC2 | -5.3% |
| NCCCCCCNS(=O)(=O)c1cccc2ccccc12 | -18.5% |
| C=CCCCCCCCCC(=O)O | 8.3% |
| Cc1cc(C(=O)NCc2nc(-c3cccc(NC(=O)c4cc(C)oc4C)c3)oc2C)nc(C)n1 | -16.0% |
| Cc1cnc(CNc2ccnc(-c3cccc(NS(C)(=O)=O)c3)n2)cn1 | -24.3% |
| CC1CC[C@@]2(OC1)OC1CC3C4CC[C@H]5CC(O)CC[C@@]5(C)C4CC[C@]3(C)C1C2C (some centres undefined) | -10.4% |
| CC1=C(C(=O)O)N2C(=O)C(NC(=O)C(N)C3=CCC=CC3)C2SC1 (centres undefined) | 3.0% |
| COc1cccc(-c2ccc3ncnc(N4CCNCC4)c3c2)c1 | -15.5% |
| N[C@H](CCC(=O)N[C@H](CSN=O)C(=O)NCC(=O)O)C(=O)O | -14.8% |

Laid out differently: four of the compounds above.
> C=CC[C@H](c1ccc(F)cc1)N(CC(C)C)S(=O)(=O)C=C
  EPAC2 ant val = u

> COCCn1c(=O)c(-c2cc(F)cc(F)c2)nc2cnc(N3CCOCC3)nc21
  EPAC2 ant val = -1.5%

> O=c1c(-c2cc(O)c(O)c(O)c2)coc2cc(O)c(O)c(O)c12
  EPAC2 ant val = 0.0%

> COCC(=O)Nc1cc(C(=O)N2CCOc3ccccc3C2)cc2nc(-c3cccnc3)n(C)c12
  EPAC2 ant val = -27.6%

(further entries)
| Compound | EPAC2 ant val |
| --- | --- |
| Cn1c(=O)[nH]c2ncn(C)c2c1=O | -9.0%&0.2%&-1.9% |
| O=C(c1cnccn1)N1CCC2(CC1)CN(Cc1cc(C(F)(F)F)cc(C(F)(F)F)c1)C2 | -29.8% |
| COC(=O)N1CCC2(CC1)CN(C(c1ccccc1)c1ccccc1)C2 | -22.6% |
| O=C(O)C#CC(=O)O | 8.1% |
| Cc1nc2cnc(N3CCNCC3)nc2n(CCc2ccccc2)c1=O | -20.3% |
| O=S1(=O)CCO[C@H]2Cc3ccccc3[C@H]2N1Cc1ccccc1 | u |
| COC(=O)C1CCN(Cc2ccc3c(c2)CN(C(=O)c2ccc4nc(C)c(C)nc4c2)CCO3)CC1 | 2.7% |
| Cc1ccccc1C(=O)NC(C)c1nnc2n1CCN(Cc1ccc(F)cc1)CC2 (centres undefined) | -2.0% |
| Cc1occc1C(=O)Nc1cccc(-c2nc(CNC(=O)c3ccc(N4CCCCC4)cc3)c(C)o2)c1 | u |
| CN(C)c1ncc2nc(-c3cccc(C#N)c3)c(=O)n(CCC#N)c2n1 | -4.0% |
| COc1ccc(CN2CCOc3ccc(CN4CCCCC4CO)cc3C2)c(OC)c1 (centres undefined) | -4.6% |
| CC(=O)O[C@]1(C)CC[C@]23CC1C(C)(C)C2CC[C@@H]3C (some centres undefined) | -8.2% |
| CC(=O)N1CCC[C@@]2(CCN(Cc3nccs3)C2)C1 | -10.1% |
| O=c1c(-c2ccccc2)nc2cncnc2n1-c1ccccc1 | 5.4% |
| C=C1C[C@@]23C[C@@]1(O)CCC2[C@@]12C=CC(O)[C@](C)(C(=O)O1)C2C3C(=O)O (some centres undefined) | -2.7% |
| O=c1c(-c2ccccc2)coc2cc(O)cc(O)c12 | 3.9% |
| CS(=O)(=O)N1CCC2(CC1)CN(C(=O)Nc1cccc(C#N)c1)C2 | -4.6% |
| CN(C)C(=O)c1ccc(-c2cncnc2NCCc2cnc[nH]2)cc1 | -19.3% |
| CC1CCC(C(C)(C)O)CC2=C1CCC2C (centres undefined) | -1.3% |
| CCN(CC)CCC(=O)N1c2ccccc2Sc2ccc(Cl)cc21 | 6.3% |
| COc1ccc(C(=O)N(Cc2cc3cccc(C)c3nc2N(C)C)CC2CCCO2)cc1 (centres undefined) | 10.0% |
| COCCn1c(=O)cnc2cnc(Oc3ccccc3)nc21 | -0.9% |
| NC(C(=O)O)c1cc(O)c(Cl)c(O)c1 (centres undefined) | 2.0% |
| Cc1c(S(=O)(=O)O)oc2c1C(=O)C(=O)c1c-2ccc2c1CCCC2(C)C | 44.7µM* |
| COc1ccc(-c2cc3ncc(C)n3c(Nc3ncccc3C(N)=O)n2)cc1OC | -14.6% |
| CN1c2ccccc2-c2ccccc2S1(=O)=O | u |
| CC(C)C[C@@H](COc1ccccc1)N1CCN(C)CCC1=O | u |
| CN1CCN(c2ccnc(-c3ccccc3C(F)(F)F)n2)CC1 | -7.8% |
| c1csc(CNc2ncncc2-c2ccc3c(c2)OCO3)c1 | -11.2% |
| Cc1cnc(CNC(=O)c2c3n(c(C)cc2=O)-c2ccccc2SC(c2ccsc2)C3)cn1 (centres undefined) | -6.3% |
| Cc1cccc(CNC(=O)c2cnn(-c3ncc(C)c(-c4cccs4)n3)c2C2CC2)n1 | 3.2% |
| O=C(NCC1Cc2cccc(-c3nccs3)c2O1)c1ccnc(Cl)c1 (centres undefined) | u |
| Cc1cnc(CNc2ncnc3ccc(-c4ccoc4)cc23)cn1 | -14.9% |
| FC(F)(F)C(F)(F)C(F)(F)C(F)(F)C(F)(F)C(F)(F)C(F)(F)C(F)(F)Br | -5.9% |
| CCCNC(C)(C)COC(=O)c1ccccc1 | -15.7% |
| CCN(CC)CCNC(=O)c1ccc(NC(C)=O)cc1 | -26.3%&10.7% |
| CCCCCCCCCCCC[n+]1ccc(/C=C/c2c[nH]c3ccccc23)c2ccccc21 | u |
| Cc1cc2c(c(-c3cnccn3)c1)OC(CNC(=O)c1ccc(-n3nc(C)cc3C)cc1)C2 (centres undefined) | -29.9% |
| COc1ccc(/C(=C\C(=O)O)c2nccc3cc(OC)c(OC)cc23)cc1OC | 2.7% |
| FC(F)(F)c1ccccc1-c1nc(-n2ccnc2)c2ccccc2n1 | -27.8% |
| Cc1nc2cnc(N3CCOCC3)nc2n(CCC#N)c1=O | -8.7% |

Copied from above (two entries):
| Compound | EPAC2 ant val |
| --- | --- |
| FC(F)(F)c1ccccc1-c1nc(-n2ccnc2)c2ccccc2n1 | -27.8% |
| Cc1nc2cnc(N3CCOCC3)nc2n(CCC#N)c1=O | -8.7% |

Some of the compounds tested, so the mix of outcomes need not match the whole.
